# miR-21 FLuc: qHTS Assay for Modulators of miRNAs and/orActivators of miR-21 | Potency, µM (doses to about 38.3 µM), inactives show at the highest dose reporter change, positive = more light | 340,000 tested, under 10 active | HeLa miR-21 FLuc reporter, luciferase, 48 h | AID 2288, 2010; active = well fitted rising curve with a large enough effect; inconclusive = small, poorly fitted or top-dose-only effect; inactive = no such curve, though single readings can be large or run the other way;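 also: % of control where 0% means no effect; miR-21 action dims this reporter so a rising signal means less miR-21 action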
#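 Luminescence from a firefly luciferase reporter carrying a miR-21 binding site downstream, stably expressed under a CMV promoter in HeLa cells that make miR-21 endogenously, reports miRNA modulation after 48 h compound exposure up to approximately 40uM final.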
# Rango-impB inh: qHTS Assay for Inhibitors of Rango (Ran-regulated importin-beta cargo) - Importin beta complex formation; Importin subunit beta-1 (Homo sapiens), Q14974; 340,000 compounds, 0.031% hits; Potency, µM (highest dose often 92.2 µM), for the others: at the top dose inhibition of complex formation; Rango CFP/YFP FRET sensor + importin beta, 45 min; active = rising FRET ratio curve, often small or poorly fitted; inconclusive = mostly compound fluorescence or quenching in the first reads; inactive = flat curves in all reads;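 also: potency is read from the fitted curve at half-maximal effect; 0% = DMSO wells and 100% = buffer wells lacking importin beta; nearly all actives have a fitted effect of over 15% in size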
# Target sequence (Q14974 whole entry, looked up): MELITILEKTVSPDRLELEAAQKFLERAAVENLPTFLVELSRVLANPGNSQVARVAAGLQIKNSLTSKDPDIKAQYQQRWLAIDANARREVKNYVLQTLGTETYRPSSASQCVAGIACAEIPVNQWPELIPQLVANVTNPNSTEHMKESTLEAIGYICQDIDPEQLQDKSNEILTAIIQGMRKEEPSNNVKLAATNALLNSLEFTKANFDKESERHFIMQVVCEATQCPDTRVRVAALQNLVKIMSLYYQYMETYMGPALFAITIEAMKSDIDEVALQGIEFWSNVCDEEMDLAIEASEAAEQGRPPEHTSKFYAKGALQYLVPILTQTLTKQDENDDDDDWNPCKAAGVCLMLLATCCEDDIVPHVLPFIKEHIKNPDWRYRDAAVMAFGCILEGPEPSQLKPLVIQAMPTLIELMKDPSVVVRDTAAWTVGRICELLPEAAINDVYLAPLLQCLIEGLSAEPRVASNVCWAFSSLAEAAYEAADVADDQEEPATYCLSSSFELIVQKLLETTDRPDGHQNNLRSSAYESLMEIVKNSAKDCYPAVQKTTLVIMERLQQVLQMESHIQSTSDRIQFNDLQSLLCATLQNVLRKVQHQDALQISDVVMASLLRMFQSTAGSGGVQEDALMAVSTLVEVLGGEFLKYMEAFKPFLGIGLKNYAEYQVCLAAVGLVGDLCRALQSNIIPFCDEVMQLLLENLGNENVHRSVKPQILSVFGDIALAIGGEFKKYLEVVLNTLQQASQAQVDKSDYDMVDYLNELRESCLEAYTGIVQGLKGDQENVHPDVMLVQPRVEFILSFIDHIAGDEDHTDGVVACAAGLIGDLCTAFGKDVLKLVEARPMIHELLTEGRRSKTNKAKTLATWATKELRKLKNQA
#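 Inhibition scored from the CFP 486 nm/YFP 530 nm FRET ratio 45 min after adding 0.125 microM importin beta to 50 nM Rango biosensor preincubated 5 min with compound (room temperature, PBS with DTT, Tween-20, BSA). No-importin wells as positive control.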
# GLA inh pH 4.5: qHTS Assay for Inhibitors of Human alpha-Galactosidase at pH 4.5; Alpha-galactosidase A (Homo sapiens), P06280; 230,000 tested, under 10 active; purified enzyme, 4-MU-alpha-Gal fluorescence, pH 4.5; activity change, negative = inhibition, % at 105 µM; AID 1467, 2008; inconclusive = small, poorly fitted or top-dose-only inhibition, or a rising curve; inactive = flat fitted curve, though single readings scatter; no compound was filed as active;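 also: 0% = full activity with enzyme and -100% = basal without enzyme; dose as in the result columns while the protocol names 77 µM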
# Rango release inh: qHTS Assay for Inhibitors of RanGTP induced Rango (Ran-regulated importin-beta cargo) - Importin beta complex dissociation | Snurportin-1 (Homo sapiens) + GTP-binding nuclear protein Ran (Homo sapiens) + Importin … | Biochemical FRET Rango-importin beta, RanGTP-induced dissociation | Potency, µM (titrated, usually from 46.1 µM), for inactives: top-dose activity change, negative = inhibition | 340,000 compounds, 0.071% hits; active means falling FRET ratio curve, often poorly fitted, with flat reads before Ran was added; inconclusive means other falling curves, or compound fluorescence or quenching; inactive means flat or rising ratio curve;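 also: potency is read from the fitted curve at half-maximal effect; % of control where 0% means no effect; nearly all actives have a fitted effect of over 45% in size; -100% = wells without RanGTP and RCC1; the record marks most hits as doubtful in a second field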
#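 Rango (0.1 uM)–importin beta (0.25 uM) complex; RanGTP-RCC1 trigger; 45 min RT; CFP/YFP FRET read.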
# An asterisk follows results filed as active; u = inconclusive; x = no result given; & = joins results of further samples.
SMILES,miR-21 FLuc,Rango-impB inh,GLA inh pH 4.5,Rango release inh
O=c1cc(/C=C/c2c(F)cccc2Cl)[nH]c2ccccc12,-34%,-0.4%,-6,u
Nc1nonc1C(=O)NCCNc1ccc([N+](=O)[O-])cn1,5%,-2.4%,1,7%
COc1ccc(CC(=O)NC(=S)NNC(=O)COc2c(C)cccc2C)cc1,-20%,-2.8%,1,-1%
O=C1NN=C(c2ccc(Cl)cc2)CC1c1cccc(Cl)c1 (stereo unspecified),9%,0.8%,-16,14%
CCOC(=O)N1CCC(NC(=O)Cn2cc3c(n2)CCC(C)C3)CC1 (stereo unspecified),0%,-0.3%,-17,3%
Cc1sc(NC(=O)COc2ccccc2)c(C#N)c1-c1ccccc1,-51%,-1.2%,-1,17%
O=C(CN(Cc1ccccc1)S(=O)(=O)c1ccccc1)N/N=C/c1ccccc1C(=O)O,0%,-0.9%,6,3%
COC(=O)c1cccc(C23CC4(C2)[C@H](CN(C)[C@@H]4c2ccccc2)C3c2ccccc2)c1 (stereo partly specified),3%,-1.8%,-4&-4,-16%
CCOC(=O)C[C@H]1c2ccccc2S(=O)(=O)N1c1ccccc1,x,-0.4%,x,-12%
CN(C(=O)c1cccc(NC(=O)Cc2ccc(NC(=O)C3CCN(C(=O)C4CCCC4)CC3)cc2)c1)C1CCC1,x,0.2%,x,-5%
O=C(CSc1nnc(Nc2ccccc2)s1)NC1CCS(=O)(=O)C1 (stereo unspecified),x,0.8%,x,-3%
CCN1c2ccccc2N(C)C1(C)c1ccccc1 (stereo unspecified),u,u,8,u
O=C(CSc1ccsc1[N+](=O)[O-])NCc1ccco1,6%,1.3%,5,4%
COc1ccc(NC(=O)C2CCCN2S(=O)(=O)c2ccc(F)cc2)cc1 (stereo unspecified),-6%,0.8%,2,1%
c1cc2c3c(cccc3c1)C(N1CCOCC1)=N2,-6%,u,-15,u
COc1ccc(S(=O)(=O)N2CCOCC2)cc1NC(=O)CSc1ccccc1,-8%,u,x,1%
S=C(NCc1ccc(Cl)cc1)NCc1ccco1,-17%,2.0%,x,u
Fc1cccc(Nc2nc3ccccc3n3cnnc23)c1,-4%,0.1%,x,1%
CC1CN(C(=O)c2ccc(COc3ccccc3Br)o2)CC(C)O1 (stereo unspecified),-2%,-0.7%,1,-2%
CC(O/N=C\c1ccccc1O)C(=O)Nc1ccccc1C(=O)N1CCOCC1 (stereo unspecified),2%,-0.2%,0,0%
Cc1cc(NC(=O)CCC(=O)N(Cc2ccco2)C(C(=O)NC2CCCCC2)c2cccs2)no1 (stereo unspecified),0%,0.9%,5,0%
COc1ccc(CN2CCNC(=O)C2CC(=O)N2CCc3ccccc3C2)c(OC)c1 (stereo unspecified),0%,-0.9%,4,-2%
CCc1ccc(NC(=O)C(C)OC(=O)/C=C/c2cccc([N+](=O)[O-])c2)cc1 (stereo unspecified),-4%,-0.4%,10,-1%
N#CCSc1nc2ccccc2c(=O)n1CCC(=O)NC1CCCCC1,-3%,-0.9%,1,3%
CCOC(=O)C1=C(CNCCOc2ccc(OC)cc2)NC(=O)NC1c1ccc2c(c1)OCO2 (stereo unspecified),0%,-3.5%,-4,0%
CCOc1ccc(NC(=O)Nc2cc(C)ccc2OC)cc1,-36%,-0.5%,-2,-2%
COc1cccc(CSc2nc3nc(C)cc(C)n3n2)c1,-37%,1.0%,x,1%
Cn1cnnc1Sc1ccc(/C=C(\CC(=O)O)c2nc3ccccc3s2)cc1[N+](=O)[O-],0%,0.1%,-7,0%
CN(C)c1ccc(/C=N/NC(=O)c2nnn(-c3nonc3N)c2CN2CCCCCC2)cc1,x,u,x,u
CC(C)(C)SCCNC(=O)COc1ccccc1,-21%,2.9%,10,1%
COCc1c(C(=O)OCC(=O)c2ccc[nH]2)oc2ccccc12,x,-4.0%,x,-5%
Cc1c(Br)cc(C(=O)N2CCN(CCO)CC2)c(C)c1C,0%,2.7%,1,-6%
O=C(NCc1cccnc1)c1ccc(S(=O)(=O)N2CCCCCC2)cc1,5%,-2.4%,-5,2%
O=C1NC(=O)/C(=C/c2ccccc2OCc2ccccc2)S1,-1%,-0.3%,-7,-2%
CCCc1cc(=O)[nH]c(SCC(=O)N2c3ccccc3NC(=O)C2(C)C)n1,x,-5.0%,x,-2%
COc1ccc(N(CC(=O)N/N=C/c2cccc3c2OCCO3)S(=O)(=O)c2ccc(NC(C)=O)cc2)cc1,0%,-1.1%,-19,2%
Cc1ccsc1C(=O)OCC(=O)c1ccc[nH]1,x,u,x,5%
Cc1cc(C(=O)CSc2ccc(F)cc2)cc(C)c1OC(=S)N(C)C,-22%,-3.6%,-8,-6%
CCOC(=O)CSc1c(-c2ccccc2)c2cc(Cl)ccc2[nH]c1=O,-6%,-3.0%,-8,-24%
CS/C(=N\S(=O)(=O)c1cccs1)Nc1ccc(Cl)cc1,-13%,u,6,-5%

# An excerpt from above in order of length of the SMILES, lowest first:
SMILES,miR-21 FLuc,Rango-impB inh,GLA inh pH 4.5,Rango release inh
CS/C(=N\S(=O)(=O)c1cccs1)Nc1ccc(Cl)cc1,-13%,u,6,-5%
CCOC(=O)CSc1c(-c2ccccc2)c2cc(Cl)ccc2[nH]c1=O,-6%,-3.0%,-8,-24%
CN(C)c1ccc(/C=N/NC(=O)c2nnn(-c3nonc3N)c2CN2CCCCCC2)cc1,x,u,x,u
Cc1cc(NC(=O)CCC(=O)N(Cc2ccco2)C(C(=O)NC2CCCCC2)c2cccs2)no1 (stereo unspecified),0%,0.9%,5,0%

# Additional records:
SMILES,miR-21 FLuc,Rango-impB inh,GLA inh pH 4.5,Rango release inh
O=C(COc1ccc(Cl)cc1)NCc1nnc(SCC(=O)NCCc2ccccc2)o1,0%,1.5%,5,0%
CC(C)c1ccc(C(=O)OCC(=O)c2c(N)n(C)c(=O)n(C)c2=O)cc1,x,0.6%,x,-7%
CCCC1=Nc2cc(C(=O)NCCCOCC)ccc2Sc2ccccc21,23%,-1.2%,-4,10%
CC(C)OC(=O)c1cc(NC(=O)c2nn(C)cc2Br)cc(C(=O)OC(C)C)c1,-1%,-2.1%,-1,-2%
Cc1ccc(S(=O)(=O)NCCOc2nc(N(C)C)nc(N(C)C)n2)cc1,8%,-0.8%,2,-12%
Cc1cc(C(=O)N2CCN(c3ccc([N+](=O)[O-])cc3)CC2)c(C)o1,9%,3.7%,x,-4%
S=C1NCN(CCc2ccccc2)CN1Cc1ccccc1,-2%,1.6%,-24,0%
CCCCC1=CC2=C(c3ccco3)C(=O)C(C)(OC(=O)c3ccc(OC)cc3)C(=O)C2=CN1C(CO)CO (stereo unspecified),0%,u,1&-11,u
C=C(C)C(C)(C#CCN1CCCC1)OC(C)=O (stereo unspecified),-9%,2.9%,6,3%
CCc1nnc(NC(=O)c2ccc(NC(=O)C(C)C)cc2)s1,-45%,4.3%,-18,-26%
CC(O)Cc1cn(CC(=O)N2CCNCC2)nn1 (stereo unspecified),0%,u,1,u
COc1cc([N+](=O)[O-])ccc1NC(=O)C[n+]1ccccc1C,2%,1.6%,-23,0%
CCCCCCCCCCCC1=C(O)C(=O)C=C(O)C1=O,x,u,-7&-1&0,0%
COc1ccc2c(c1OC)C(=O)c1ccccc1C2=O,-25%,x,7,x
COCCN(C(=S)Nc1c(C)cc(C)cc1C)C(C)c1cccs1 (stereo unspecified),-2%,5.3%,-1,-6%
CCOC(=O)COc1ccc2nsnc2c1,-1%,-5.9%,1,-8%
COc1cc(OC)cc(C(=O)OCCNC(=O)Cn2cnc3c2c(=O)n(C)c(=O)n3C)c1,-2%,x,0,x
O=C(O)COc1ccc(-c2nccc(-c3cccs3)n2)cc1,u,x,5,x
O=C(CN1C(=O)c2ccccc2S1(=O)=O)N1CCN(c2ccc(F)cc2)CC1,5%,1.2%,3,0%
CC1CCN(C(=O)Cn2nnc(-c3ccccc3)n2)CC1,-46%,1.0%,x,-3%
COc1cc(-c2nnc(SCC(=O)Nc3ccc(C(=O)O)cc3)o2)cc(OC)c1OC,x,2.4%,x,-7%
CN(CC(=O)Nc1ccccc1Cl)C(=O)CN1C(=O)NC(c2ccccc2)(c2ccccc2)C1=O,x,-0.9%,x,4%
Cc1ccc(C2=NCCn3c2c2ccccc2[n+]3[O-])cc1,x,0.5%,x,1%
Cn1cc(CNC(=O)c2cc(COc3ccc4c(c3)CCCC4)on2)cn1,-2%,-5.1%,x,8%
NCCCC[C@H]1CNC(=O)C(=O)N1CCc1cccc(F)c1,-1%,2.6%,13,10%
Cc1nn(C(=O)C2CC2)c(C)c1Sc1ccc(Cl)cc1,-4%,2.8%,-10,1%
CCOc1cc(/C=C2\CN(C)C/C(=C\c3ccc(O)c(OCC)c3)C2=O)ccc1O,u,u,x,-1%
COc1ccccc1C(=O)NNC(=O)c1ccccc1[N+](=O)[O-],-3%,0.0%,-10,1%
Nc1c(-c2ccc(Cl)cc2)cnn1-c1cc(C(F)(F)F)cc(C(F)(F)F)c1,0%,3.7%,-1,-1%
COc1cc(-c2nnc(SCC(=O)c3cc(C)n(CC4CCCO4)c3C)o2)cc(OC)c1OC (stereo unspecified),-2%,-1.8%,4,-3%
COc1ccc(CN(CC(=O)NC2CCCC2)C(=O)CCC(=O)Nc2nc(C)cs2)cc1,9%,7.0%,x,-23%
C=CCS(=O)(=O)N1CCCC(N2CCN(c3ccccc3OC)CC2)C1 (stereo unspecified),-2%,0.8%,x,-2%
COC(=O)c1sc(NC(=O)/C=C/c2ccccc2Cl)nc1C,3%,-2.9%,-2,11%
Cc1ccc(-c2csc(NC(=O)CSc3nc4ccccc4o3)n2)cc1,-51%,-2.1%,2,13%
CN(C)C(=O)CSc1nc2ccccc2n1CC(=O)N1CCN(c2ccccc2)CC1,-2%,-0.2%,5,2%
COc1ccc(CCNC(=O)CSc2nc3ccccc3o2)cc1,-5%,-1.8%,4,1%
COc1cccc(CNC(=O)COC(=O)c2nc(Cl)c(Cl)c(Cl)c2Cl)c1,x,3.2%,x,u
N#C/C(=C(/O)CN1CCOCC1)c1nc(-c2ccccc2)cs1,-27%,u,5,-15%
CCc1nc(SCc2ccc(OC)c(Br)c2)n[nH]1,-36%,0.9%,x,16%
Cc1cccn2c(=O)c3cc(C(=O)NC4CCCC4)c(=N)n(C4CCCC4)c3nc12,-9%,u,4,u
COc1cc(CNCc2cccs2)ccc1OCC(=O)NC(C)(C)C,-9%,-0.8%,4,-2%
COc1nc(NCCc2ccc(OC)c(OC)c2)nc(OC)n1,-14%,-1.2%,13,u
CCOC(CNC(=O)C(=O)Nc1cc2c3c(c1)CCN3C(=O)CC2)OCC,1%,10%,x,-14%
CC(=O)Nc1cc(C(=O)NCc2ccco2)ccc1Sc1ccc(C)cc1,-5%,0.8%,-7,-2%
O=c1[nH]c(-c2ccccc2)nn1-c1ccc(Br)cc1Br,-3%,2.3%,x,-1%
COc1ccc(OC(C)C(=O)Nc2cccc(F)c2)cc1 (stereo unspecified),0%,-0.7%,5,13%
COCCCNC(=S)Nc1ccccc1C,8%,6.4%,2,-6%
COc1ccc(NC(=O)C2CC(=O)OC23CCCCC3)cc1 (stereo unspecified),-5%,4.8%,1,1%
COC(=O)c1sccc1NC(=S)Nc1cc(C)cc(C)c1,0%,8.6%,0,57%
COc1ccc(-c2c(C#N)c(N)nc3c2c(=O)n(C)c(=O)n3C)cc1Cl,x,-0.4%,x,3%
Cc1ccc(OCC(=O)Nc2cc(C)on2)c([N+](=O)[O-])n1,-48%,-5.3%,3,3%

# Part of the list above, reformatted:
# The line under a structure holds: miR-21 FLuc	Rango-impB inh	GLA inh pH 4.5	Rango release inh
- COc1ccc(-c2c(C#N)c(N)nc3c2c(=O)n(C)c(=O)n3C)cc1Cl
→ x	-0.4%	x	3%
- Cc1ccc(OCC(=O)Nc2cc(C)on2)c([N+](=O)[O-])n1
→ -48%	-5.3%	3	3%

# This is a subset. The share of hits here may be higher or lower than overall.
